CBX7 AlphaScr – CBX7 chromodomain binding inhibitors, primary screen, biochemical, AlphaScreen; Chromobox protein homolog 7 (Homo sapiens), O95931; AlphaScreen His6-CBX7 / biotin-H3K27me3 peptide binding; hits give low values; normalised signal (fraction of DMSO) (no concentration beside the values); 1.1% of 66,000 active; AID 1224903, 2016; in the data active = normalised signal below about 0.5;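 note: 100 nL library stock added to about 20 µL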
Target sequence (O95931 whole entry, looked up): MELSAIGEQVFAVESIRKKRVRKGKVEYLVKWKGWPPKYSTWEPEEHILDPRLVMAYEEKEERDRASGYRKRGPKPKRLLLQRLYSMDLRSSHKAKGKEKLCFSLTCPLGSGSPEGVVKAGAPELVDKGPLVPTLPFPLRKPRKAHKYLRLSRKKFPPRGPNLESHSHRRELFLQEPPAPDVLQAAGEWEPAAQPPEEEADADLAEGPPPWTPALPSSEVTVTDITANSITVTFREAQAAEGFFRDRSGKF
CBX7 AlphaScr z-score – second read-out of CBX7 AlphaScr, no call of its own (marks repeat the call); z-score; measured here: z-score of CBX7 signal; some inactives read as strong as hits; reference of the scale not given here;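 same signal on another scale; lower means less binding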
The depositor's hits bear a star; & = joins results of further samples.

A first look (4 entries):
Compound	CBX7 AlphaScr	CBX7 AlphaScr z-score
CCOP(=O)(OCC)c1nc(-c2ccc(C)cc2)oc1N(C)C	0.93	-3
CCN1CCN(c2ncc(C(=O)Nc3ccccc3C(=O)OC)c3ccccc23)CC1	1	0.81
O=C(c1cccc(F)c1)N1CCCC(C(=O)N2CCCCCC2)C1 (configuration not stated)	0.99	-0.38
CCCNC(=O)Cn1cnc2sc(C(=O)Nc3ccccc3C(=O)OCC)c(C)c2c1=O	1	0.38

Results, previewed entries included:
Compound	CBX7 AlphaScr	CBX7 AlphaScr z-score
CCOP(=O)(OCC)c1nc(-c2ccc(C)cc2)oc1N(C)C	0.93	-3
CCN1CCN(c2ncc(C(=O)Nc3ccccc3C(=O)OC)c3ccccc23)CC1	1	0.81
O=C(c1cccc(F)c1)N1CCCC(C(=O)N2CCCCCC2)C1 (configuration not stated)	0.99	-0.38
CCCNC(=O)Cn1cnc2sc(C(=O)Nc3ccccc3C(=O)OCC)c(C)c2c1=O	1	0.38
CCN(C(=O)CCc1nc(-c2ccc(C)cc2)no1)c1cccc(Cl)c1	1.4	3.7
O=C(O)c1ccc2c(c1)N(Cc1ccccc1F)C(=O)c1ccccc1S2(=O)=O	0.89	-1.8
CCN(CC)CCNC(=O)Cn1nc(Cc2ccncc2)c2ccccc2c1=O	1	0.29
Cc1ccc(-c2nc(-c3cccnc3)no2)cc1Cl	1	0.027
COc1ccc(-c2nc(CN3CCC(C(=O)NCc4ccccc4OC)CC3)c(C)o2)cc1	1.1	1.9
COc1cccc(-c2nn(C)c3sc(C(=O)Nc4ccc(Br)cc4C)cc23)c1	0.97	-0.4
Cc1c(C(=O)N2CCN(C)CC2)[nH]c2ccc(OCc3ccccc3)cc12	0.88&0.91	-2.6&-2.1
COc1cc2c(C(=O)N3CCCCC3)cn(CC(C)C)c(=O)c2cc1OC	0.96	-0.47
COc1ccc(-c2nc3ccccc3o2)cc1NC(=O)COc1ccc(Cl)cc1C	1	0.017
O=C(Nc1c2c(nn1-c1ccc(Cl)cc1)CSC2)c1cccs1	0.93	-1.7
O=C(CSc1ccc2nnc(-c3ccccc3)n2n1)N1CCCCC1	1.2	6.2
CCCc1cc(C(=O)NCc2ccc(Cl)cc2)no1	1.1	1.7
Cc1ccc(Nc2cc(C(=O)NCc3ccccn3)c3ccccc3n2)c(C)c1	1.1	0.79
CCOc1ccc(NC(=O)c2cn(C)c(=O)c3cc(OC)c(OC)cc23)cc1	1.1	1
CC(C)Cn1c(CN2CCN(c3cccc(Cl)c3)CC2)nc2c1c(=O)[nH]c(=O)n2C	1	0.094
O=C(NC1CCCc2ccccc21)C1CCN(C(=O)c2sccc2-n2cccc2)CC1 (configuration not stated)	1	1
CC(C)c1ccc(NC(=O)C(c2ccccc2)N(C)Cc2ccccc2)cc1 (configuration not stated)	1.2	1.1
c1ccc(-c2cc3c(Oc4cccc5cccnc45)ncnc3s2)cc1	0.97	-0.96
Cc1cc(C)c(C#N)c(SCC(=O)Nc2nsc(-c3ccccc3)n2)n1	0.97	-1
CCOc1cc2c(cc1OCC)C(c1ccc(OC(C)C)cc1)NCC2 (configuration not stated)	0.98	-0.079
COc1cc(OC)cc(-c2nnc(NC(=O)c3ccc(S(=O)(=O)N4CCOCC4)cc3)o2)c1	0.85	-3.4
CCOC(=O)N1CCN(c2c(N3CC=C(c4ccccc4)CC3)c(=O)c2=O)CC1	0.97	-1.3
COCCNC(=O)c1ccc2c(c1)N(Cc1cccc(Cl)c1)C(=O)c1ccccc1S2	0.88	-1.2
Cc1ccc2c(C)c(C(=O)N(Cc3ccccc3)C3CCS(=O)(=O)C3)oc2c1 (configuration not stated)	0.95	-0.53
CC1(C(=O)NCc2cccnc2)CCC(=O)N1Cc1ccc2c(c1)OCO2 (configuration not stated)	1	0.62
Cc1cccc(-c2nc(Nc3ccc(C)c(Cl)c3)c3ccccc3n2)c1	1.1	1.7

Complete entries, looked up by structure:
O=C(Nc1c2c(nn1-c1ccc(Cl)cc1)CSC2)c1cccs1 across the screens: CBX7 AlphaScr = 0.93; CBX7 AlphaScr z-score = -1.7
CCN1CCN(c2ncc(C(=O)Nc3ccccc3C(=O)OC)c3ccccc23)CC1 across the screens: CBX7 AlphaScr = 1; CBX7 AlphaScr z-score = 0.81

(cont.)
Compound	CBX7 AlphaScr	CBX7 AlphaScr z-score
O=C(Cn1ncc2ccsc2c1=O)NCCCN1CCN(Cc2ccccc2)CC1	1	0.44
O=C(Nc1ccc2oc(-c3ccc4ccccc4c3)nc2c1)c1ccccc1F	0.95	-0.63
COc1ccc(-c2noc(Cc3ccc(Cl)cc3)n2)cc1OC	1.2	3.2
Cc1cc(C)cc(-c2nc(-c3ccccn3)no2)c1	0.97	-0.34
O=C(Cn1ncc2c1-c1ccccc1OC2)N1CCCCCC1	1.2	2
Cc1nc2c(C(=O)NC3CCCC3)cnn2c(C)c1Cc1cccc(Br)c1	1.3	1.9
Cc1ccc(-c2nn(CC(=O)Nc3ccc(C)cc3C)c(=O)c3ccccc23)cc1	0.99	-0.15
COc1ccc(C)cc1NC(=O)c1cc2c(-c3ccc(Cl)cc3)nn(C)c2s1	1	0.18
Cc1ccc(C)c(N2CCN(S(=O)(=O)c3cnc[nH]3)CC2)c1	0.88	-1.6
COc1ccc(NC(=O)C2CCN(S(=O)(=O)c3cccc4cccnc34)CC2)cc1Cl	0.95	-0.57
O=C1CCc2cc(S(=O)(=O)N3CCCCCC3)ccc2N1	1	0.66
Cc1ccc(-c2nc(-c3ccncc3)no2)cc1Cl	1.1	0.083
O=C1CC(c2cccc(Oc3ccccc3)c2)c2cc3c(cc2N1)OCO3 (configuration not stated)	0.56	-5.6
COc1cccc(C(O)c2nc3ccccc3n2C(C)C)c1OC (configuration not stated)	0.87	-1.4
O=C(CCN1C(=O)COc2ccccc21)NCc1cccnc1	0.96	-1.1
O=C(CN1C(=O)CSc2ncccc21)NC1CCCc2ccccc21 (configuration not stated)	1	0.085
CCCc1nc2ccccc2n1CC(O)COc1cccc(Cl)c1 (configuration not stated)	0.97	-0.75
Cc1ccc(Nc2nc(-c3ccncc3)cs2)c(C)c1	0.97	-0.39
CCOc1ccc(NC(=O)C2NC(=O)CC2c2ccccc2)cc1 (configuration not stated)	0.91	-1
COc1ccc(CCNC(=O)c2cc3c(n(-c4ccccc4)c2=O)CC(C)(C)CC3=O)cc1OC	1.1	1.4
COc1ccc(C2=NOC(C(=O)N3CCN(C)CC3)C2)cc1 (configuration not stated)	1	0.58
CCOCCCNC(=O)c1cc(Sc2ccc(C)cc2)nc2ccccc12	1.1	1.4
CCOc1ccc(Nc2ccnc3cc(Cl)ccc23)cc1	1.1	1.4
CC(C)C(=O)Nc1cc(-c2nc3ncccc3o2)ccc1Cl	0.99	-0.25
CCn1cc(C(=O)Nc2cc(C)ccc2OC)c(=O)c2ccc(C)nc21	1.1	0.59
O=C1C2C3C=CC(CNS(=O)(=O)c4ccc(Cl)cc4)(O3)C2C(=O)N1Cc1ccccc1 (configuration not stated)	0.92	-1.1
Cc1cc(C)c(NC(=O)C2CCN(c3nn4c(=O)cc(C)nc4s3)CC2)c(C)c1	1.2	1.5
COc1ccc(-c2noc(CN3CCN(c4ccccc4F)CC3)n2)cc1	1.1	2.2
COc1cc2nc(/C=C/c3ccccc3F)n(-c3cccc(Cl)c3)c(=O)c2cc1OC	0.98	-1
CC(=O)Nc1ccc(Oc2nc(-c3ccccc3F)nc3ccccc23)cc1	0.97	-0.82

Another view of part of the listing above:
mol: O=C(CN1C(=O)CSc2ncccc21)NC1CCCc2ccccc21 (configuration not stated)
  CBX7 AlphaScr = 1
  CBX7 AlphaScr z-score = 0.085

mol: Cc1cc(C)c(NC(=O)C2CCN(c3nn4c(=O)cc(C)nc4s3)CC2)c(C)c1
  CBX7 AlphaScr = 1.2
  CBX7 AlphaScr z-score = 1.5

Next part
Compound	CBX7 AlphaScr	CBX7 AlphaScr z-score
Cc1cc2cc(CCNC(=O)COc3ccc4ccccc4c3)c(=O)[nH]c2cc1C	0.97	-1.5
Cc1ccc(OCc2nc(-c3ccc(OCC(N)=O)cc3)no2)cc1C	0.96	-0.55
CCOCCCNC(=O)CSCc1nc(-c2ccc(OC)cc2)oc1C	1.1	1.1
Cc1cc(Nc2ccc(F)c(Cl)c2)n2nc(C)nc2n1	1	-0.086
COc1ccccc1CNC(=O)c1sc2ncn(CC(=O)N3CCOCC3)c(=O)c2c1C	1	0.26
O=C(CSc1nnc(CNC(=O)c2ccccc2F)o1)Nc1ccc2c(c1)OCCO2	1.1	1.9
COc1ccc(-c2cc3nc(C)c(CCC(=O)NCCCc4ccccc4)c(C)n3n2)c(OC)c1	1.1	0.71
CC1CCC(NC(=O)C2c3cccn3CC(=O)N2CCc2ccc(Cl)cc2)CC1 (configuration not stated)	1	0.068
CCC1Oc2ccc(C)cc2N(CC(=O)NCCc2ccccc2)C1=O (configuration not stated)	1	1
COc1ccccc1NC(=O)c1cnc(Nc2nc3ccccc3s2)nc1C	1	0.028
COCCn1cc(C(=O)NCC2COc3ccccc3O2)c2c3ccccc3n(C)c2c1=O (configuration not stated)	1.1	1.7
Cc1ccc2c(c1)NC(=O)C(CC(=O)Nc1cc(Cl)ccc1C)O2 (configuration not stated)	1	1.9
O=C(Cn1ccc2ccccc2c1=O)NCC(=O)Nc1cnc2ccccc2c1	1	1.8
O=C(NC1CC1)c1nnc(Cc2ccc(Cl)cc2)o1	0.9	-1.2
CCN1CCN(CCCNC(=O)Cn2ncc3c2-c2cc(C)ccc2OC3)CC1	1	0.94
CCCCNC(=O)CCN1C(=O)COc2ccccc21	0.99	-0.23
COc1ccc(-c2nc(Nc3ccccc3)c3ccccc3n2)cc1OC	0.97	-0.58
O=C1Nc2cc(C(=O)N3CCN(c4cccc(Cl)c4)CC3)ccc2Nc2ccccc21	0.72	-2.2
Cc1ccccc1N1C(=O)C(N2C(=O)c3ccccc3C2=O)C1C(=O)O (configuration not stated)	1.2	1.5
Cc1cccc(C)c1NC(=O)c1ccc2nc(N3CCC(C)CC3)sc2c1	1.1	1.2
CCc1ccc(OCCCC(=O)Nc2ccc(S(=O)(=O)Nc3ncccn3)cc2)cc1	1	0.19
CC(CCc1ccccc1)NC(=O)CC(C)(C)CC1=NS(=O)(=O)c2ccccc2N1 (configuration not stated)	0.91	-1.8
Cc1cccc(Nc2ccc(NCc3ccccc3)nn2)c1	0.98	-0.64
CC1CCCCC1NC(=O)CCc1cn(C)c2ccccc12 (configuration not stated)	0.86	-1.6
CCC1CCCCN1S(=O)(=O)c1ccc2[nH]c(=O)cc(C(=O)NCCC(C)C)c2c1 (configuration not stated)	0.83	-1.8
CC(=O)Nc1ccc(NC(=O)CCc2c(C)nc3ncnn3c2C)cc1	1.1	1.5
CC1(C(=O)NC2CCCCC2)CCC(=O)N1Cc1ccc(F)cc1Cl (configuration not stated)	1.1	1.4
CCN1CCN(C(c2cccs2)C(C)NC(=O)C(=O)NCc2ccc(OC)cc2)CC1 (configuration not stated)	1.3	2.9
Cc1c(NC(=O)c2cccnc2)cccc1-c1nc2cc(Cl)ccc2o1	0.99	-0.0065
CCOC(=O)c1cnc2cc(Cl)c(OC)cc2c1Nc1ccc(F)cc1	0.56	-0.5

Other records follow.
Compound	CBX7 AlphaScr	CBX7 AlphaScr z-score
CCn1cc(C(=O)N2CCN(Cc3ccc4c(c3)OCO4)CC2)c2cc(OC)c(OC)cc2c1=O	1	0.41
NC(=O)CSc1nc2c(c(=O)n1-c1ccccc1)C1(CCCC1)Cc1ccccc1-2	0.77	-0.91
Cc1oc(-c2ccc(Cl)cc2)nc1CN1CCC(C(=O)N2CCc3ccccc3C2)CC1	1	0.67
O=C(CC1Oc2ccc(Cl)cc2NC1=O)NCc1ccccc1 (configuration not stated)	1.1	2.1
CCc1ccc(NC(=O)c2sccc2-n2cccc2)cc1	0.6	-12
Cc1nc2cc(C(=O)O)ccc2n1-c1ccc(F)cc1F	1.2	1.8
CCOC(=O)c1c(-c2ccc(OC)c(OC)c2)csc1NC(=O)CN1CCOCC1	0.76	-3.7
Cn1nc(-c2ccc(C(=O)N3CCC(Cc4ccccc4)CC3)cc2)c2ccccc2c1=O	0.92	-0.73
CCn1c(C)c(CCC(=O)O)c(=O)n2nc(-c3ccccc3OC)cc12	1.2	2.4
Cc1cc(-c2ccccc2)n(-c2cc(Nc3cccc(F)c3)ncn2)n1	0.58	-2.6
CCOC(=O)c1cnn(-c2ccccc2)c1NC(=O)CSc1nc2ccccc2o1	1.1	2.4
Cc1ccc(C)c(CN2C(=O)c3ccccc3Sc3ccc(C(=O)NCc4cccs4)cc32)c1	1	1.2
Cc1cc(C(=O)Nc2cc(Cl)ccc2C)n(-c2ccccc2)n1	1	0.056
CCOC(=O)c1cc(-c2ccccc2)n(CCC(=O)NCCc2ccccc2)c1C	0.97	-0.63
COc1cccc(C2CC(c3ccc(OC(F)F)cc3)n3nnnc3N2)c1 (configuration not stated)	1	0.31
CC1CCN(C(=O)CSc2nc(Nc3ccc(F)c(F)c3)c3ccccc3n2)CC1	0.84	-0.44

Not all compounds are listed (hit frequency here may not be typical).
